Screens from PubChem BioAssay.
PrP 5UTR inh = inhibition of PrP 5' UTR reporter expression; cell-based PrP 5' UTR mRNA reporter, plate reader; inhibition, % (test concentration not listed); 340,000 compounds, 0.35% hits;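 active means every replicate at 50% or more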;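 further: 0 = median of the neutral control wells; tested in H4 reporter cells; numbers are from one replicate; inactives centre near -14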
BJeLR lethal = kills HRASV12-expressing BJeLR cells | BJeLR (HRASV12) viability, CellTiter-Glo ATP luminescence, 48 h; reference of the scale not given here | inhibition, % (test concentration not listed) | 300,000 compounds, 0.17% hits | AID 1554;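 active means replicate mean above 50%; inconclusive means above 50% but judged a plate artefact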;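 further: 50 nL library stock added to about 25 µL; numbers are from one replicate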
Autofluor counter = flagged as autofluorescent in microsphere protease counterscreen | compound autofluorescence counterscreen, microsphere flow cytometry; hits give high values | fluorescence intensity (test concentration not listed) | 360,000 compounds, 3.1% hits | AID 624483;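 active means at least 3 SD above the mean of all compounds, about 16000 in these data; inconclusive means too few beads counted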;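 further: 100 nL of 1 mM stock went into each well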
Sa ugtP lethal = kills S. aureus RN4220 lacking UgtP; S. aureus RN4220 ugtP deletion, OD600 growth, 16 h; some inactives read as strong as hits; growth inhibition, % (no concentration beside the values); 330,000 compounds, 0.54% hits; AID 1259309;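 active means z-score under -3 and OD600 up to 0.15 on both plates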;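 further: plate controls were untreated wells for no effect and antibiotic for full effect; wells of about 80 µL received 100 nL stock; the first replicate is given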
Mtb hypoxia rep = inhibitors of hypoxia-regulated fluorescent reporter in Mycobacterium tuberculosis | M. tuberculosis hypoxia-regulated fluorescent reporter, fluorescence | fluorescence inhibition, % (concentration not given with the values) | 300,000 compounds, 0.1% hits | AID 1159583;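 active means 35 to 45% if threefold the growth effect, above 45% if 1.5-fold the growth effect; inactive means the rest, general growth blockers included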;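 further: wells of about 50 µL received 100 nL stock; 0% = vehicle wells and 100% = reference inhibitor wells; whole bacteria with a GFP reporter of the hypoxia response; strong numbers were not always called active; many hits fall short of the cut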
Sa RN4220 lethal = S. aureus RN4220 growth inhibition. OD600, 16 h. AID 1259311. inhibition, % (test concentration not listed). 330,000 compounds, 0.33% hits;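 active means z-score of -3 or lower and OD600 up to 0.18 on both plates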;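 further: plate controls were untreated cells for no effect and reference antibiotic for full effect; stock transfer was 100 nL into about 80 µL; one replicate is shown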
Mtb hypoxia rep growth = also measured in Mtb hypoxia rep; calls as there; growth inhibition, %; measured here: M. tuberculosis growth (absorbance);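 0% = vehicle and 100% = reference antibiotic; read after six days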
An asterisk follows results filed as active; ? = inconclusive; . = no result given.

SMILES | PrP 5UTR inh | BJeLR lethal | Autofluor counter | Sa ugtP lethal | Mtb hypoxia rep | Mtb hypoxia rep growth | Sa RN4220 lethal
COc1ccccc1C(CNC(=O)CSc1ccc2ccccc2c1)N(C)C (stereo not drawn) | -18 | -9 | 6086 | -12 | 7 | 9 | 7.6
CCC/C=N/Nc1nnc(Cc2ccccc2)c(=O)[nH]1 | -14 | -21 | 3848 | . | . | . | .
CC(C)(C)CC(=O)Nc1cc2c3c(c1)CCN3C(=O)CC2 | -5 | 2 | 5964 | 3 | 3 | -5 | 1.9
CCCCN(C)CCNC(=O)Cn1ncc2c(=O)oc3ccc(C)cc3c21 | 0 | -5 | 6001 | -2 | 4 | -1 | 4.1
Cc1ccccc1NC(=O)C(=O)NCCCN1CCCC1=O | -5 | 0 | ? | . | . | . | .
O=C(Nc1cccc(F)c1)C1CC(=O)N(c2ccc(Br)cc2)C1 (stereo not drawn) | -13 | 4 | 2670 | -18 | . | . | -5.9
Cn1cc(CN2CCCC(C(=O)c3ccc(-c4ccccc4)cc3)C2)cn1 (stereo not drawn) | -11 | 3 | 2506 | 45 | 13 | 3 | -0.9
O=C(CNC(=O)C1CCCCC1)OCC(=O)c1ccc(Cl)s1 | -11 | 1 | 4360 | 6 | 9 | 4 | 4.4
CCC(=O)n1nc(-c2ccco2)nc1N | -4 | -1 | 3403 | 15 | -13 | -6 | 24
COC(=O)c1cc2ccsc2n1CC(=O)Nc1cc(Cl)ccc1OC | -22 | 22 | 5492 | 9 | 10 | 0 | -0.4
Clc1cccc(-c2nnc(-c3ccno3)o2)c1 | -19 | -6 | 4144 | 3 | 7 | -1 | 2.6
Cc1ccc(OCC(=O)Nc2cc(NC(=O)COc3ccc(C)cc3)cc(C(=O)O)c2)cc1 | -12 | -2 | 3299 | -8 | -3 | -3 | -3.0
COc1ccc(C2/C(=C(/O)c3ccccc3)C(=O)C(=O)N2CCCN2CCOCC2)cc1 (stereo not drawn) | -35 | -10 | 4292 | 4 | 5 | -2 | 2.4
O=C(Nc1ccc2[nH]ncc2c1)c1cccc(F)c1 | -22 | -5 | 3952 | 13 | 9 | 1 | 3.9
CC1CN(C(=O)COC(=O)Cc2c(F)cccc2Cl)CC(C)O1 (stereo not drawn) | 2 | . | ? | 11 | 1 | -3 | 8.1
O=C(CSCc1ccco1)c1cccs1 | -97 | -2 | 2300 | 9 | 6 | 4 | -1.2
COc1cccc(Nc2ncc(C(=O)O)c3ccccc23)c1 | -14 | -3 | 5001 | 2 | . | . | -0.5
CCOC(=O)C(Cc1ccccc1)NC(C)=O (stereo not drawn) | -3 | 2 | 4445 | 15 | 7 | 3 | 4.4
CN1CCN(CCCC(=O)c2ccc(F)cc2)CC1 | 7 | 8 | 10273 | -7 | 10 | 5 | 3.5
O=[N+]([O-])c1ccccc1S(=O)(=O)Nc1nc2ccccc2s1 | -15 | 5 | ? | 6 | -1 | -9 | 13
O=C(O)c1ccc(N/N=C/c2ccc(OC(=O)c3ccccc3Cl)cc2)cc1 | -10 | 8 | 2061 | . | . | . | .
Cc1nc(NN)c2c3c(sc2n1)COC(C)(C)C3 | -37 | -3 | 3674 | 16 | 11 | 12 | 1.0
COCC(C)NC(=O)C1c2ccccc2Oc2ccccc21 (stereo not drawn) | -22 | -9 | 4076 | 14 | -3 | 0 | 4.5
O=C(c1ccc(SCc2cccc(Br)c2)c([N+](=O)[O-])c1)N1CCN(c2ccccn2)CC1 | -16 | -3 | 4454 | 6 | 8 | 5 | 3.0
O=C(NC1CC=CCC(CC(=O)N(CCO)Cc2ccccc2)C(=O)NC(c2ccccc2)COC1=O)OCC1c2ccccc2-c2ccccc21 (stereo not drawn) | . | . | . | -1 | 15 | 11 | 7.9
CCC(=O)c1ccc(OCC(=O)OCC(=O)NCCCc2ccccc2)cc1 | -21 | -7 | . | 2 | 5 | 4 | 6.0
CN1C(=O)c2ccccc2Sc2ccc(C(=O)O)cc21 | -25 | -2 | 3778 | -10 | 11 | -2 | 4.0
Cn1c(CCN2CCCC2)nc2cc(NS(=O)(=O)c3ccccc3)ccc21 | -12 | 3 | 5917 | 1 | 2 | 1 | 2.2
O=C(c1n[nH]c(=O)c2ccccc12)N1CCN(c2ccccc2)CC1 | -14 | 1 | 3501 | 7 | . | . | -2.2
Cc1ccc(N(C(=O)C(F)(F)F)C(C(=O)NC2CCCCC2)c2cccs2)cc1 (stereo not drawn) | -22 | -1 | 7626 | 1 | 8 | 8 | 3.4

Five entries out of the list, arranged by heavy-atom count, highest first:
SMILES | PrP 5UTR inh | BJeLR lethal | Autofluor counter | Sa ugtP lethal | Mtb hypoxia rep | Mtb hypoxia rep growth | Sa RN4220 lethal
O=C(NC1CC=CCC(CC(=O)N(CCO)Cc2ccccc2)C(=O)NC(c2ccccc2)COC1=O)OCC1c2ccccc2-c2ccccc21 (stereo not drawn) | . | . | . | -1 | 15 | 11 | 7.9
Cc1ccc(N(C(=O)C(F)(F)F)C(C(=O)NC2CCCCC2)c2cccs2)cc1 (stereo not drawn) | -22 | -1 | 7626 | 1 | 8 | 8 | 3.4
O=C(O)c1ccc(N/N=C/c2ccc(OC(=O)c3ccccc3Cl)cc2)cc1 | -10 | 8 | 2061 | . | . | . | .
COCC(C)NC(=O)C1c2ccccc2Oc2ccccc21 (stereo not drawn) | -22 | -9 | 4076 | 14 | -3 | 0 | 4.5
CN1C(=O)c2ccccc2Sc2ccc(C(=O)O)cc21 | -25 | -2 | 3778 | -10 | 11 | -2 | 4.0

Remaining list, next part.
SMILES | PrP 5UTR inh | BJeLR lethal | Autofluor counter | Sa ugtP lethal | Mtb hypoxia rep | Mtb hypoxia rep growth | Sa RN4220 lethal
Cc1noc(C)c1NC(=O)Nc1ccc2c(c1)C(=O)N(C(C)CO)CC(C)C(CN(C)S(=O)(=O)c1ccc(F)cc1)O2 (stereo not drawn) | . | . | . | 2 | 7 | 6 | 4.9
CC(C)n1cc(NC(=O)c2cc(-c3ccccc3)on2)cn1 | -97 | 14 | 4606 | -4 | . | . | 1.1
COc1cc(C=NS(=O)(=O)CCc2ccccc2)cc(OC)c1O | . | . | . | 10 | 2 | -1 | 2.3
CCCCCN1CC(O)=C(c2ccccc2)C1=N | -7 | -9 | 4364 | 3 | 8 | 5 | 7.7
Cc1ccsc1C=NNC(=O)c1ccc(Cn2cc(Br)cn2)o1 | . | . | . | -2 | 5 | 4 | 1.6
O=C(O)/C=C/C(=O)N1CCc2ccccc21 | -9 | 12 | 3470 | 6 | 10 | 8 | 2.2
CCOc1ccccc1CNC(=O)C1CCN(c2nc3ccccc3o2)CC1 | -3 | . | 8101 | 11 | -3 | -2 | 6.3
CCOC(=O)CCNC(=O)N1CCCC(C(=O)c2cccc(Cl)c2)C1 (stereo not drawn) | -19 | 0 | 2677 | 1 | 8 | 1 | 1.2
Cc1ccc(S(=O)(=O)NCCSC(C)(C)C)cc1 | -4 | -8 | ? | -1 | 6 | -5 | 3.2
O=C(O)COc1ccccc1C=NNC(=O)C(O)c1ccccc1 (stereo not drawn) | . | . | . | 7 | 5 | -3 | 1.4
CC(=O)c1ccc(N2CCN(CC(=O)N(C3CC3)C3CCS(=O)(=O)C3)CC2)c(F)c1 (stereo not drawn) | -1 | . | 4111 | 2 | 3 | 6 | -0.7
CCO/C=C/C(O)(CNC(=O)COc1ccccc1F)C(F)(F)F (stereo not drawn) | -14 | -4 | 9299 | 3 | -2 | 11 | 3.7
CCCC(CCC(=O)Nc1ccc(C(=O)OC)cc1)C(=O)O (stereo not drawn) | -6 | -2 | 3679 | 2 | . | . | 6.9
Cc1cccc(NC(=S)N(Cc2ccc(Br)cc2)Cc2ccc(C(=O)O)cc2)c1 | -26 | 3 | 3244 | 13 | 13 | 16 | 9.3
O=C(NN=C1CCCCCC1)c1cn(-c2ccccc2)nc1-c1ccccc1 | 5 | 1 | 2573 | -2 | 1 | 0 | 3.6
COc1ccc(C[C@H]2CN3C(=NC[C@H]3Cc3ccccc3)N2CCNC(=O)CCC2CCCCC2)cc1 | -14 | 21 | 2925 | . | . | . | .
CCNc1nc(NC(C)C)nc(Oc2ccc(/C=N/O)cc2)n1 | -6 | -2 | 3269 | . | . | . | .
O=C(Nc1ccccc1O)c1cccc(NC(=O)c2ccco2)c1 | -16 | 2 | 3522 | . | . | . | .
N#Cc1ccc(-c2nc3ccccc3c(=O)n2O)cc1 | -16 | -5 | 3858 | -7 | 16 | 10 | 4.1
O=C(OCC(=O)N1CCOCC1)c1ccc(N2CCOCC2)c([N+](=O)[O-])c1 | -29 | -2 | 4317 | 5 | -6 | -7 | 5.0
Clc1ccc(OCc2cn3ccccc3n2)c2ncccc12 | -67 | 1 | ? | -9 | -4 | -3 | 1.4
Cc1nc2ccccc2n1CC(O)Cn1c(C(F)(F)F)nc2ccccc21 (stereo not drawn) | -3 | -1 | 5180 | 5 | . | . | -1.2
C=CCSc1nnc(C)c(/C=C/Nc2ccc(Cl)cc2)n1 | -16 | 1 | 5888 | 2 | -4 | -1 | -3.1
CCn1c(SCC(=O)Nc2cc(C(C)(C)C)nn2-c2ccccc2)nnc1-c1cccs1 | -7 | 3 | 1983 | 2 | 6 | 2 | 3.0
COc1ccc(Cc2nc3ccc(C(=O)N(C)C(C)c4nccs4)cc3o2)cc1 (stereo not drawn) | -4 | -2 | 4025 | 0 | 3 | 6 | -3.3
CCOc1ccc(C(=O)OCCN(C)C)cc1 | -5 | -7 | 2757 | 7 | . | . | -3.6
COc1ccc(Cl)c(NC(=O)CC(C)=NNC(=O)CCc2ccccc2)c1 | . | . | . | 4 | 13 | 6 | 1.7
Cc1cccc(N(C)C(=O)c2cc(S(=O)(=O)N3CCCCC3)c[nH]2)c1 | -13 | -2 | 5971 | 13 | 4 | -2 | 5.2
Cc1ccc(NC(=O)CSCC(=O)Nc2ccc(S(=O)(=O)N3CCCC3)cc2)cc1 | -14 | 9 | ? | 8 | 10 | 3 | 1.8
CCOCCn1c(CN(Cc2ccccc2)Cc2ccccc2)nc2c1c(=O)[nH]c(=O)n2C | . | -4 | 10790 | -11 | 7 | 8 | 5.3
COc1ccccc1NC(=O)CCS(=O)(=O)c1cc2c(cc1Cl)NC(=O)CO2 | -4 | -8 | 5894 | 1 | 0 | -2 | 4.1
COc1ccccc1CN1CCN(C(=O)COc2cccc(C)c2)CC1 | -26 | 6 | 2475 | 3 | . | . | 2.6
CCCCOc1nc(N2CCOCC2)nc(C)c1[N+](=O)[O-] | -12 | 11 | 6063 | -4 | 4 | 9 | 3.1
O=C1C2C3C=CC(C3)C2C(=O)N1c1ccc2c(c1)OCO2 (stereo not drawn) | -4 | -9 | 4261 | 0 | 15 | 9 | 6.7
CC1=C(C(N)=O)C(c2ccc(Cl)c(Cl)c2)n2ncnc2N1 (stereo not drawn) | -7 | -7 | 3576 | 0 | 0 | -2 | 3.1
CCN1C(=O)N[C@@H](c2ccccc2)[C@@H](C(=O)OC)[C@H]1C | -25 | -1 | 3981 | . | . | . | .
O=C(NCc1ccccc1)N[C@@H](Cc1c[nH]c2ccccc12)C(=O)O | -14 | 5 | 4448 | 3 | 17 | 14 | 5.0
O=C(CCc1ccccc1)NCc1ccccc1 | -34 | . | 2590 | 4 | . | . | 0.6
C/C(=N\NC(=O)c1nn(C)cc1Br)c1ccc(NC(=O)c2ccncc2)cc1 | -49 | -5 | 2663 | . | . | . | .
COc1ccccc1NC(=O)c1ccc(NC(=O)COC(=O)C2(C)CC2(Cl)Cl)cc1 (stereo not drawn) | -26 | -3 | 2393 | -22 | 3 | 5 | -2.8
O=C(/C=C/c1ccc2c(c1)OCO2)Nc1nc2ccccc2s1 | -39 | -4 | 2043 | . | . | . | .
C/C(=N\NC(=O)C1(C)CC1(Br)Br)c1ccc(NC(=O)C2CCC2)cc1 (stereo not drawn) | -15 | -1 | 3691 | . | . | . | .
CC(OC(=O)c1ccc(-n2cnnn2)cc1)C(=O)N(C)c1ccccc1 (stereo not drawn) | -12 | . | 5426 | 2 | 3 | 3 | 2.5
CCNC(=O)c1cccc(NC(=O)C2CC(=O)N(CCc3ccccc3)C2)c1 (stereo not drawn) | 6 | . | 6661 | -1 | 2 | 5 | 0.3
O=C(c1ccccc1)N1CCCCC(S(=O)(=O)c2ccccc2)C1=O (stereo not drawn) | -8 | -5 | 10821 | 1 | 6 | 7 | 0.6

Taken from above.
BJeLR lethal with `O=C(Nc1ccc2[nH]ncc2c1)c1cccc(F)c1` → -5
Mtb hypoxia rep growth with `CC1CN(C(=O)COC(=O)Cc2c(F)cccc2Cl)CC(C)O1` (stereo not drawn) → -3
